Screening data from PubChem BioAssay.
eIF4H inh: human eIF4H binding inhibitors, primary screen, translation initiation inhibitor project, biochemical, uHTS, fluorescence polarization; Eukaryotic translation initiation factor 4H (Homo sapiens), Q15056; eIF4H fluorescence polarization binding assay; inhibition, % at 35 µM; 290,000 compounds, 0.94% hits; AID 2012, 2009;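 active = 50% or more with normal probe brightness, or confirmed in later tests; about a fifth of its hits are not listed in these tables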;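 note: calls also rest on retests at 20 µM and on dose response follow-up; 0% = protein and probe with vehicle and 100% = probe without protein; strong numbers were not always called active; many hits fall short of the cut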
MT1-MMP act inh: blockers of MT1-MMP proenzyme processing, primary screen, HT1080 RFP-PRO-GFP cells, GFP/RFP fluorescence | Matrix metalloproteinase-14 (Homo sapiens), P50281 | GFP/RFP ratio fluorescence, overnight; percent of plate control window, DMSO zero | GFP/RFP ratio change, % at 20 µM | 360,000 compounds, 0.061% hits | AID 651647, 2012;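 active = GFP/RFP ratio change of at least 30% with cell ATP level not reduced by more than half and red fluorescence within 50% of control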; note: strong numbers were not always called active
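Material – HT1080 RFP-PRO-GFP cells · Control set – DMSO wells and RFP-L50D-GFP cells · Incubation – overnight cell settling, then overnight compound exposure, 37 °C, 5% CO2 · Compound dosing – single-point 20 µM compound, 1% DMSO · Read-out – GFP/RFP fluorescence ratio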
CSC inhib: cancer stem cell viability inhibitors, primary screen, luminescence. inhibition, % at 7.5 µM. cancer stem cell-like cells viability. AID 2717, 2010. 300,000 compounds, 1.1% hits;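 active = mean at 75% or more and at least half the replicates too; tested in HMLE shEcad cells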;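 note: 0% = median of negative and 100% = median of positive control wells; the first replicate is given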
Env fusion inh: inhibitors of HIV-1 Env-driven cell-cell fusion, primary screen, HeLa-JRFL effector, CEM21 target cells, luciferase; 360,000 compounds, 1.1% hits; inhibition, % at 12.3 µM;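 active = mean replicate inhibition score of at least 50 and every replicate individually at or above 50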;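 note: 0% = plate neutral controls and 100% = maraviroc near 300 nM; one replicate is shown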
PABP polyA inh: PABP poly(A) RNA binding inhibitors, primary screen, biochemical, fluorescence polarization, uHTS; 290,000 compounds, 1% hits; AID 2014, 2009; inhibition, % at 35 µM;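 active = 50% or more with normal probe brightness, or confirmed in later tests; about a fifth of its hits are not listed in these tables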;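 note: calls also rest on retests at 20 µM and on dose response follow-up; controls were probe without protein and protein plus probe with vehicle; some compounds called inactive have numbers as strong as hits; many hits fall short of the cut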
Target sequence (P11940 whole entry, looked up): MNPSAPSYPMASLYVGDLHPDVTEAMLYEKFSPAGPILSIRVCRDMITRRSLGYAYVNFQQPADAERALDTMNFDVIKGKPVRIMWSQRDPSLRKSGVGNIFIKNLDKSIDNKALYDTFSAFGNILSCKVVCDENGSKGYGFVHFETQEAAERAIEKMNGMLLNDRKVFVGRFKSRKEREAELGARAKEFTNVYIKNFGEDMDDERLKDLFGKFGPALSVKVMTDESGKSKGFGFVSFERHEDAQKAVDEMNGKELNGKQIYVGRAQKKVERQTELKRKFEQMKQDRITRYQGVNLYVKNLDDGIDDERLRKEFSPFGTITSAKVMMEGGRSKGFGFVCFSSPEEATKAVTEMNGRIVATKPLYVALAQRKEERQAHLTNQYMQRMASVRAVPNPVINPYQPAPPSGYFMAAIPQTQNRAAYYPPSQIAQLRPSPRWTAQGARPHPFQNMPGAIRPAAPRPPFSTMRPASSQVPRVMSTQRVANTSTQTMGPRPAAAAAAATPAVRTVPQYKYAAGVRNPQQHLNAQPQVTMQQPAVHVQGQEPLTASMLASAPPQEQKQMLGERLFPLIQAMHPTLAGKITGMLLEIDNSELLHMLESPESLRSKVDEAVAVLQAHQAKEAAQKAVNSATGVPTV
Rce1 inh: yeast Rce1p protease inhibitors, primary screen, biochemical, fluorescence, cell-free homogeneous | CAAX prenyl protease 2 (Saccharomyces cerevisiae (strain ATCC 204508 / S288c)), Q03530 | yeast membranes, quenched prenylated peptide cleavage fluorescence | calls only | 290,000 compounds, 0.27% hits | AID 2563, 2010;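 active = fall in fluorescence gain of 50% or more versus controls, with final raw signal at or below 3038400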;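 note: plate controls were neutral control wells for no effect and wells lacking membranes for full effect; tested at 10 µM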
Target sequence (Q03530 whole entry, looked up): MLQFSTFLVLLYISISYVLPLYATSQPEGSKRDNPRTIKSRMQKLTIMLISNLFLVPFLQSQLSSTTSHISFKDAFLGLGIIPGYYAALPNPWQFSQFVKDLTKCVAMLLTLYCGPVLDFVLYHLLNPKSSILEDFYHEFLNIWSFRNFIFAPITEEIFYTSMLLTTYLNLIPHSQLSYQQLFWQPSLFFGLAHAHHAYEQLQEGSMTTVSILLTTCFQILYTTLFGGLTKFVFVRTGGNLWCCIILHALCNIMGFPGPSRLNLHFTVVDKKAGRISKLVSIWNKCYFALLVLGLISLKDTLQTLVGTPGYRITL
UUG fidelity: modulators of yeast start codon fidelity, primary screen, whole organism, S. cerevisiae, single point, plate reader; activity score, % at 18.7 µM; 350,000 compounds, 0.13% hits; S. cerevisiae UUG-firefly luciferase reporter, luminescence/redox ratio;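 active = replicate mean at a twofold rise or more, about +100% in these data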;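 note: firefly luciferase made from a UUG start codon reports start codon fidelity; reporter light over untreated wells divided by growth signal over untreated wells; some hits fall short of that in this replicate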
eIF4H inh retest: also measured in eIF4H inh; calls as there; inhibition, %; compound at 20 µM; confirmation average;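 mean of two retest wells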
PABP polyA inh retest: second read-out of PABP polyA inh, no call of its own (marks repeat the call); inhibition, %; compound at 20 µM; confirmation repeats;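 mean of two retest wells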
MT1-MMP act inh RFP: also measured in MT1-MMP act inh; calls as there; RFP signal change, %; measured here: RFP expression control read;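 0 = vehicle wells; hits needed this value within 50% of zero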
An asterisk follows results filed as active. A portion of the library, so the mix of outcomes need not match the whole.

Preview, 5 compounds:
For CC(C)(C)c1ccc(OC(=O)c2ccc(-n3cncn3)nc2)cc1 the results were eIF4H inh -2, CSC inhib -16, Env fusion inh -9 and PABP polyA inh -3.
Screening COc1ccc(CNC(=O)CCc2nc3cc(S(=O)(=O)N(C)C)ccc3n2C)cc1OC returned eIF4H inh 2, MT1-MMP act inh -3, CSC inhib -9, Env fusion inh 1, PABP polyA inh -6, Rce1 inh inactive, UUG fidelity -15 and MT1-MMP act inh RFP 1.
For O=[N+]([O-])c1ccccc1S(=O)(=O)N(CC1CO1)c1ccccc1 (stereo not given) the results were eIF4H inh -8, MT1-MMP act inh 3, CSC inhib -1, Env fusion inh -7, PABP polyA inh 12, Rce1 inh inactive, UUG fidelity -18 and MT1-MMP act inh RFP 7.
Screening COc1cc(/C=N/NC(=O)CCN2CCCCC2)ccc1O returned eIF4H inh -7, MT1-MMP act inh 2, CSC inhib -8, Env fusion inh 7, PABP polyA inh -14, Rce1 inh inactive and MT1-MMP act inh RFP 2.
For O=S(=O)(Nc1ccccc1O)c1ccc(Cl)nc1 the results were eIF4H inh 9, MT1-MMP act inh -2, CSC inhib -7, Env fusion inh -9, PABP polyA inh -8, Rce1 inh inactive, UUG fidelity -1 and MT1-MMP act inh RFP 0.

The whole of this part, from the start:
For CC(C)(C)c1ccc(OC(=O)c2ccc(-n3cncn3)nc2)cc1 the results were eIF4H inh -2, CSC inhib -16, Env fusion inh -9 and PABP polyA inh -3.
Screening COc1ccc(CNC(=O)CCc2nc3cc(S(=O)(=O)N(C)C)ccc3n2C)cc1OC returned eIF4H inh 2, MT1-MMP act inh -3, CSC inhib -9, Env fusion inh 1, PABP polyA inh -6, Rce1 inh inactive, UUG fidelity -15 and MT1-MMP act inh RFP 1.
For O=[N+]([O-])c1ccccc1S(=O)(=O)N(CC1CO1)c1ccccc1 (stereo not given) the results were eIF4H inh -8, MT1-MMP act inh 3, CSC inhib -1, Env fusion inh -7, PABP polyA inh 12, Rce1 inh inactive, UUG fidelity -18 and MT1-MMP act inh RFP 7.
Screening COc1cc(/C=N/NC(=O)CCN2CCCCC2)ccc1O returned eIF4H inh -7, MT1-MMP act inh 2, CSC inhib -8, Env fusion inh 7, PABP polyA inh -14, Rce1 inh inactive and MT1-MMP act inh RFP 2.
For O=S(=O)(Nc1ccccc1O)c1ccc(Cl)nc1 the results were eIF4H inh 9, MT1-MMP act inh -2, CSC inhib -7, Env fusion inh -9, PABP polyA inh -8, Rce1 inh inactive, UUG fidelity -1 and MT1-MMP act inh RFP 0.
`COc1ccc(NC(=O)NNC(=O)c2ccc3ccccc3c2O)cc1OC` gave eIF4H inh 5, MT1-MMP act inh 0, CSC inhib -11, Env fusion inh 4, PABP polyA inh 8, Rce1 inh inactive, UUG fidelity -9 and MT1-MMP act inh RFP 2.
Screening Fc1cccc(Cl)c1CSc1ccc(-c2cccnc2)nn1 returned eIF4H inh -14, MT1-MMP act inh 2, CSC inhib 0, Env fusion inh -8, PABP polyA inh 0, Rce1 inh inactive and MT1-MMP act inh RFP -8.
`CN(CCCNC(=O)c1ccc(CS(=O)c2ccc(Br)cc2)o1)Cc1ccccc1` (stereo not given) gave eIF4H inh -13, MT1-MMP act inh 1, CSC inhib 21, Env fusion inh 4, PABP polyA inh 7, Rce1 inh inactive, UUG fidelity -21 and MT1-MMP act inh RFP 2.
For CCc1nnc(NC(=O)CSc2nnc(CNc3ccc(F)cc3)n2C2CCCCC2)s1 the results were eIF4H inh -2, MT1-MMP act inh -19, CSC inhib -12, PABP polyA inh -3, Rce1 inh inactive, UUG fidelity -24 and MT1-MMP act inh RFP 3.
Screening CN(C)c1ccc(N2CN=C3SCC(=O)N3C2)cc1 returned eIF4H inh 4, MT1-MMP act inh 3, CSC inhib 12, Env fusion inh -121, PABP polyA inh 9, Rce1 inh inactive, UUG fidelity -16 and MT1-MMP act inh RFP 6.
For CCCCCCCCCn1c2c(c(=N)c3c1CCC3)CCCC2 the results were eIF4H inh -12, MT1-MMP act inh -38, PABP polyA inh -23 and MT1-MMP act inh RFP -37.
Screening COc1ccc(Cl)cc1S(=O)(=O)N1CCCC(C(=O)NCc2ccccc2)C1 (stereo not given) returned eIF4H inh -7, MT1-MMP act inh 4, CSC inhib -4, Env fusion inh -33, PABP polyA inh -6, Rce1 inh inactive, UUG fidelity 18 and MT1-MMP act inh RFP -4.
For CCCCC(=O)N(C)c1c(CC)nc2c(OCC(=O)C(C)(C)C)cccn12 the results were MT1-MMP act inh 1, Env fusion inh -2, UUG fidelity -39 and MT1-MMP act inh RFP 2.
Cc1nc(N)c(CC(Br)CBr)c(Cl)n1 (stereo not given) was read as eIF4H inh -3, MT1-MMP act inh -6, CSC inhib -12, Env fusion inh 27, PABP polyA inh -9, Rce1 inh inactive and MT1-MMP act inh RFP -7.
For COc1ccc(NC(=S)N(CCCN2CCCC2)Cc2cccn2Cc2ccc(Cl)cc2)cc1Cl the results were eIF4H inh 5, MT1-MMP act inh -2, CSC inhib 42, Env fusion inh 11, PABP polyA inh 16, Rce1 inh inactive, UUG fidelity -14 and MT1-MMP act inh RFP -6.
For COc1ccc(NC(=O)COC(=O)C2CCC(C(C)(C)C)CC2)c([N+](=O)[O-])c1 (stereo not given) the results were eIF4H inh -6, MT1-MMP act inh 4, CSC inhib 6, Env fusion inh 30, PABP polyA inh 1, Rce1 inh inactive and MT1-MMP act inh RFP 4.
C=C(C)CC1N(c2cccc(OC)c2)C(=O)[C@@H]2C(C(=O)O)[C@H]3C=C[C@@]12O3 (stereo not given in full) was read as eIF4H inh -17, MT1-MMP act inh 6, CSC inhib -8, Env fusion inh -49, PABP polyA inh 2, Rce1 inh inactive, UUG fidelity -3 and MT1-MMP act inh RFP 13.
For COc1ccc(S(=O)(=O)N2CCN(CC(=O)NCCc3cccs3)CC2)cc1 the results were MT1-MMP act inh -4, CSC inhib -10, Env fusion inh -27, UUG fidelity 5 and MT1-MMP act inh RFP 0.
Cc1cc(NC(=O)c2nn3cccnc3c2Cl)no1 was read as eIF4H inh -7, MT1-MMP act inh 4, CSC inhib 4, Env fusion inh -75, PABP polyA inh 10, Rce1 inh inactive, UUG fidelity -40 and MT1-MMP act inh RFP 3.
Cc1cccc(OCc2nnc(NC(=O)c3cccs3)s2)c1 was read as eIF4H inh 5, MT1-MMP act inh 12, CSC inhib -4, Env fusion inh -34, PABP polyA inh 0, Rce1 inh inactive, UUG fidelity 6 and MT1-MMP act inh RFP 6.
Cc1ccc(OC(=O)CN2C(=O)c3ccccc3C2=O)cc1C was read as eIF4H inh 1, MT1-MMP act inh 1, CSC inhib -7, Env fusion inh -11, PABP polyA inh 1, Rce1 inh inactive and MT1-MMP act inh RFP 1.
O=C(NCc1ccco1)/C(=C\c1ccco1)NC(=O)c1ccc(Br)o1 was read as eIF4H inh 83, MT1-MMP act inh 1, CSC inhib 7, Env fusion inh -30, PABP polyA inh 13, Rce1 inh inactive, eIF4H inh retest -2, PABP polyA inh retest -1 and MT1-MMP act inh RFP 1.
CCC(=O)Nc1ccc(NC(=S)NC(=O)/C=C/c2ccccc2)cc1 was read as eIF4H inh -6, MT1-MMP act inh -6, CSC inhib 5, Env fusion inh 34, PABP polyA inh 2, Rce1 inh inactive and MT1-MMP act inh RFP 2.
Screening CCOc1ccc(Cl)cc1/C=N/NC(N)=O returned eIF4H inh -2, MT1-MMP act inh -1, CSC inhib 0, Env fusion inh -9, PABP polyA inh 2 and MT1-MMP act inh RFP -3.
Screening CC(C)N1CCC(NC(=O)Nc2ccc3c(c2)OCO3)CC1 returned eIF4H inh -9, MT1-MMP act inh 5, Env fusion inh 1, PABP polyA inh 7, Rce1 inh inactive and MT1-MMP act inh RFP 5.
COC(=O)N1CCN(c2ccc(Cl)c(Cl)c2)CC1 was read as eIF4H inh 5, MT1-MMP act inh -1, CSC inhib 7, PABP polyA inh -4, Rce1 inh inactive and MT1-MMP act inh RFP -6.
For Cc1ccc(NC(=O)CCNS(=O)(=O)c2cccc3nsnc23)cc1F the results were eIF4H inh -9, MT1-MMP act inh 0, CSC inhib -12, Env fusion inh 7, PABP polyA inh 9, Rce1 inh inactive, UUG fidelity -5 and MT1-MMP act inh RFP 1.
N#CCCN(Cc1cccs1)C(=O)Nc1ccc(F)cc1 was read as eIF4H inh -4, MT1-MMP act inh 1, CSC inhib -3, Env fusion inh 1, PABP polyA inh -8, Rce1 inh inactive, UUG fidelity -2 and MT1-MMP act inh RFP 2.
O=C(/C=C/c1ccc2c(c1)OCO2)NCc1cn2cc(Cl)ccc2n1 was read as eIF4H inh -3.3*, MT1-MMP act inh 2, CSC inhib -13, Env fusion inh 2, PABP polyA inh 74, Rce1 inh inactive, UUG fidelity -28, eIF4H inh retest 76*, PABP polyA inh retest 32 and MT1-MMP act inh RFP 1.
Cc1nc2ccccc2c2oc(C(=O)NCc3ccccn3)cc12 was read as eIF4H inh 100, MT1-MMP act inh -1, CSC inhib 1, PABP polyA inh 4, Rce1 inh inactive, UUG fidelity -10, eIF4H inh retest -3, PABP polyA inh retest 1 and MT1-MMP act inh RFP -11.
For COCCNC(=O)c1onc(CSc2cccc(Cl)c2)c1C(=O)O the results were eIF4H inh -4, MT1-MMP act inh 1, CSC inhib -4, Env fusion inh 2, PABP polyA inh 8, Rce1 inh inactive, UUG fidelity -16 and MT1-MMP act inh RFP 3.
CC(=O)c1cccc(NC(=O)c2ccc3c(=O)n4c(nc3c2)CCCCC4)c1 was read as eIF4H inh -10, MT1-MMP act inh 1, CSC inhib 2, Env fusion inh -10, PABP polyA inh 8, Rce1 inh inactive and MT1-MMP act inh RFP -7.
Screening Cc1c(Cc2ccccc2)c(=O)oc2cc(OCc3nn[nH]n3)ccc12 returned eIF4H inh -7, MT1-MMP act inh -4, CSC inhib -2, PABP polyA inh 10, Rce1 inh inactive, UUG fidelity -27 and MT1-MMP act inh RFP 2.
For CCOC(=O)c1ccc(NC(=O)Nc2cccc(C)n2)cc1 the results were eIF4H inh -3, MT1-MMP act inh -2, CSC inhib -3, Env fusion inh 20, PABP polyA inh 17, Rce1 inh inactive, UUG fidelity -1 and MT1-MMP act inh RFP -4.
Screening COC(=O)c1[nH]c2cc(C)ccc2c1NC(=O)CN1CCN(C(=O)c2ccco2)CC1 returned eIF4H inh 0, MT1-MMP act inh 6, CSC inhib -10, Env fusion inh 3, PABP polyA inh -1, Rce1 inh inactive, UUG fidelity -9 and MT1-MMP act inh RFP 2.
Cc1cc(NC(=O)CSc2nc(-c3ccco3)cc(C(F)(F)F)n2)no1 was read as eIF4H inh -6, MT1-MMP act inh 5, CSC inhib -20, PABP polyA inh 4, UUG fidelity 7 and MT1-MMP act inh RFP -6.
CCCCOc1ccc(C(=O)Nc2cccc(-n3cnnn3)c2)cc1OC was read as eIF4H inh -16, MT1-MMP act inh 0, CSC inhib 11, Env fusion inh 0, PABP polyA inh 3, Rce1 inh inactive, UUG fidelity -14 and MT1-MMP act inh RFP -5.
